Screens (PubChem BioAssay)
AF4-AF9 inh = inhibitors of human MLL-AF4/AF9 interaction. AlphaScreen, biotin-AF4 peptide binding to FLAG-AF9. AID 651704. P42568. hit rate 0.47% among 350,000. inhibition, % at 10 µM;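 active means every replicate reaching a set inhibition limit, whatever the replicate mean, cut at about 25% in these data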;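 further: 0% = plate neutral control median and 100% = total signal loss; the record names both 10 and 1 µM as test concentration; the first replicate is given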
Target sequence (P42568 whole entry, looked up): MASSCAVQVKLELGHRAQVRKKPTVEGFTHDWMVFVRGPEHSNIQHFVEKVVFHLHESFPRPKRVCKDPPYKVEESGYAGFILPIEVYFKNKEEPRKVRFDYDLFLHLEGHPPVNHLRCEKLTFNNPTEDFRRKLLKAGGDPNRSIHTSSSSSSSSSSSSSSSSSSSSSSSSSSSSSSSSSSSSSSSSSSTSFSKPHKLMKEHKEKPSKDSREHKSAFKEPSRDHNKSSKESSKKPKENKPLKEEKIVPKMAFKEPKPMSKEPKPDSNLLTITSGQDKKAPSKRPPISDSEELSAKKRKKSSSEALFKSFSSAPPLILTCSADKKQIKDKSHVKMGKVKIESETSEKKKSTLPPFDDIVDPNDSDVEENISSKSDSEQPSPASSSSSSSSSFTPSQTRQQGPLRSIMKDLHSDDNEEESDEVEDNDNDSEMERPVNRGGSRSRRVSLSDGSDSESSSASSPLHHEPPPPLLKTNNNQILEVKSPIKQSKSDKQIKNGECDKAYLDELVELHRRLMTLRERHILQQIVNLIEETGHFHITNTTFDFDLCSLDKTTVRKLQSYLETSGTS
FGF22 binding = FGF22 (human) thermal shift binding. Q9HCT0. recombinant FGF22 thermal shift, SYPRO orange fluorescence; percent of sucrose octasulfate shift, DMSO zero. hit rate 1.5% among 340,000. calls only at 9.99 µM;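 active means melting point raised past a set limit in the mean and every replicate; three in four hits are not shown here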
Target sequence (Q9HCT0 whole entry, looked up): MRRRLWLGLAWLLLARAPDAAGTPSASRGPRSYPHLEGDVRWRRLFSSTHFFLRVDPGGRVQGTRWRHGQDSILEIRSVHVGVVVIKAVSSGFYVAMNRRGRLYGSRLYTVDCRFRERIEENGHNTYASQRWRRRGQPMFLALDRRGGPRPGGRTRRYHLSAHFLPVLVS
* hit, by the source's call; i = inactive; + = active, no number. Some of the compounds tested; count on the stated rates, not on these rows.

SMILES	AF4-AF9 inh	FGF22 binding
C[C@H](CO)N1C[C@H](C)[C@@H](CN(C)CC2CCCCC2)OCCCC[C@H](C)Oc2ccc(NS(=O)(=O)c3ccccc3)cc2C1=O	0.9	i
C[C@H](CO)N1C[C@H](C)[C@@H](CN(C)C(=O)Nc2ccccc2)Oc2c(NC(=O)Nc3cccc4ccccc34)cccc2C1=O	7.4	i
CNC[C@H]1Oc2ccc(NC(=O)Nc3ccccc3)cc2C(=O)N([C@@H](C)CO)C[C@H]1C	0.8	i
C[C@H]1CN([C@@H](C)CO)C(=O)c2cc(NS(=O)(=O)c3cn(C)cn3)ccc2O[C@@H]1CN(C)Cc1ccncc1	-2.9	i
CCC(=O)Nc1ccc2c(c1)OC[C@@H](C)NC[C@H](C)[C@H](OC)CN(C)C2=O	-0.7	i
COCC#Cc1ccc([C@@H]2[C@@H](CO)N3CCCCN(C(=O)CN(C)C)C[C@H]23)cc1	3.9	i
COC(=O)C[C@H]1CC[C@H](NC(=O)Nc2ccc(C(F)(F)F)cc2)[C@H](CO)O1	-3.8	i
Cc1noc(C)c1NC(=O)N[C@@H]1CC[C@H](CC(=O)NCCCN(C)C)O[C@@H]1CO	-0.3	i
Cc1ccc(S(=O)(=O)Nc2cccc3c2O[C@@H](CN(C)C(=O)Nc2ccc4c(c2)OCO4)[C@@H](C)CN([C@@H](C)CO)C3=O)cc1	2.2	i
CO[C@H]1CN(C)C(=O)c2cc(NC(=O)C3CCOCC3)ccc2OC[C@@H](C)N(Cc2cccnc2)C[C@@H]1C	-9.6	i
COc1ccc(S(=O)(=O)N2CC[C@@H]3[C@@H](CO)N(C)c4ccc(-c5ccc(F)cc5)cc4[C@@H]32)cc1	0.9	i
C[C@H]1CN([C@@H](C)CO)C(=O)Cc2cc(NC(=O)CCCCCC(=O)Nc3ccccc3N)ccc2O[C@@H]1CN(C)S(=O)(=O)c1cn(C)cn1	-0.8	i
CO[C@@H]1CN(C)C(=O)c2ccc(NC(=O)NC3CCCCC3)cc2OC[C@@H](C)N(C(=O)NC2CCCCC2)C[C@H]1C	-1.7	i
C[C@H]1CN([C@@H](C)CO)C(=O)Cc2cc(NC(=O)C3CC3)ccc2O[C@@H]1CN(C)C(=O)Nc1ccc(F)cc1	-3.3	i
Cc1noc(C)c1NC(=O)N(C)C[C@@H]1OCCCC[C@@H](C)Oc2ccc(NC(=O)NC(C)C)cc2C(=O)N([C@H](C)CO)C[C@@H]1C	-8.8	i
C[C@H](CO)N1C[C@H](C)[C@@H](CN(C)Cc2cccnc2)Oc2cc(C#C[C@@H](C)O)ccc2S1(=O)=O	-1.4	i
C[C@@H]1CN([C@@H](C)CO)C(=O)c2cccc(NS(C)(=O)=O)c2O[C@H]1CN(C)CC1CC1	-3.4	i
Cc1ccc(S(=O)(=O)N(C)C[C@@H]2Oc3ccc(NS(=O)(=O)c4c(C)noc4C)cc3C(=O)N([C@H](C)CO)C[C@H]2C)cc1	-1.7	i
CNC[C@H]1Oc2cc(C#Cc3cccnc3)ccc2S(=O)(=O)N([C@H](C)CO)C[C@@H]1C	2.2	i
CS(=O)(=O)Nc1ccc2c(c1)[C@H]1C[C@@H](CC(=O)N3CCc4ccccc4C3)O[C@H](CO)[C@H]1O2	2.6	i
CC(=O)N(C)C[C@H]1Oc2ncc(C#Cc3cccc(F)c3)cc2C(=O)N([C@H](C)CO)C[C@H]1C	1.8	i
C[C@@H]1CN([C@H](C)CO)C(=O)c2cccc(NC(=O)Nc3ccccc3)c2O[C@H]1CN(C)S(=O)(=O)c1ccccc1	-2.1	i
C[C@@H]1CN([C@H](C)CO)C(=O)c2cc(NC(=O)c3ccccc3)ccc2O[C@@H](C)CCCCO[C@@H]1CN(C)C(=O)c1ccccc1	-16	+
C[C@H](CO)N1C[C@H](C)[C@@H](CN(C)Cc2ccncc2)Oc2ccc(NC(=O)C3CCCCC3)cc2CC1=O	0.6	i
O=C(C1CC1)N1C[C@H]2[C@@H](c3ccccc31)[C@H](CO)N2C(=O)c1ccccc1	-1.4	i
CC(=O)N[C@@H]1CC[C@@H](CCNC(=O)Nc2ccc(C(F)(F)F)cc2)O[C@@H]1CO	11	i
Cc1ccccc1-c1ccc([C@@H]2[C@@H](CO)N3CCCCN(C(=O)Nc4ccc(F)cc4)C[C@@H]23)cc1	-5.0	i
CCNC(=O)C[C@@H]1C=C[C@H](NS(=O)(=O)c2ccc(C)cc2)[C@H](CO)O1	-1.0	i
COC(=O)C[C@H]1CC[C@H]2[C@@H](COC[C@H](O)CN2S(=O)(=O)c2ccc(F)cc2)O1	-2.6	i
CS(=O)(=O)N1[C@@H]2c3ccc(C4=CCCCC4)c(=O)n3C[C@H]1[C@H](CO)[C@H]2C(=O)N1CCCCC1	-0.8	i

Next part (2 carried over from the part before).
SMILES	AF4-AF9 inh	FGF22 binding
COC(=O)C[C@H]1CC[C@H]2[C@@H](COC[C@H](O)CN2S(=O)(=O)c2ccc(F)cc2)O1	-2.6	i
CS(=O)(=O)N1[C@@H]2c3ccc(C4=CCCCC4)c(=O)n3C[C@H]1[C@H](CO)[C@H]2C(=O)N1CCCCC1	-0.8	i
C[C@H](CO)N1C[C@H](C)[C@H](CN(C)C(=O)Nc2ccc(C(F)(F)F)cc2)Oc2c(NC(=O)C3CCCCC3)cccc2C1=O	5.8	i
C[C@H]1CN([C@@H](C)CO)C(=O)Cc2cc(NS(=O)(=O)c3ccccc3)ccc2O[C@H]1CN(C)Cc1ccccc1	1.0	i
C[C@H]1CN([C@@H](C)CO)C(=O)c2c(c3ccccc3n2C)-c2ccccc2CO[C@H]1CN(C)S(=O)(=O)c1ccc(C#N)cc1	2.8	i
CO[C@H]1CN(C)C(=O)c2ccc(NS(C)(=O)=O)cc2OC[C@@H](C)N(CC2CCCCC2)C[C@H]1C	2.4	i
O=C(Cc1ccncc1)NCC[C@@H]1CC[C@H](NC(=O)C2CCCC2)[C@H](CO)O1	-0.3	i
C[C@@H]1CN([C@H](C)CO)C(=O)c2cc(C#Cc3ccccc3)cnc2O[C@H]1CN(C)C(=O)c1ccccn1	-3.2	i
CO[C@@H]1CN(C)C(=O)c2cc(NC(C)=O)ccc2OC[C@@H](C)N(C(=O)CN(C)C)C[C@@H]1C	-0.3	i
Cc1ccc(S(=O)(=O)N(C)C[C@H]2Oc3ccc(NC(=O)Cc4cn(C)c5ccccc45)cc3C(=O)N([C@@H](C)CO)C[C@H]2C)cc1	0.0	i
C[C@@H]1CN([C@H](C)CO)C(=O)c2cccc(NC(=O)Nc3ccccc3)c2O[C@H]1CN(C)Cc1ccc(C(F)(F)F)cc1	5.4	i
COc1ccc(S(=O)(=O)N[C@@H]2CC[C@H](CC(=O)NCCc3ccccc3)O[C@H]2CO)cc1	-1.5	i
COc1ccc(NC(=O)Nc2ccc3c(c2)C(=O)N([C@H](C)CO)C[C@@H](C)[C@@H](CN(C)C(=O)Nc2ccc(OC)cc2)O3)cc1	2.0	i
O=C(Nc1cccc2ccccc12)OC[C@@H]1CSCCS(=O)(=O)N1	-4.0	i
C[C@H](CO)N1C[C@H](C)[C@@H](CN(C)Cc2ccc(C(=O)O)cc2)OCCCC[C@H](C)Oc2ccc(NC(=O)Nc3ccc(C(F)(F)F)cc3)cc2C1=O	0.3	i
Cc1noc(C)c1S(=O)(=O)N(C)C[C@H]1OCCCC[C@H](C)Oc2ccc(NS(=O)(=O)c3ccccc3)cc2C(=O)N([C@H](C)CO)C[C@@H]1C	-2.4	i
CO[C@@H]1CN(C)C(=O)c2cc(NC(=O)c3cnccn3)ccc2OC[C@H](C)N(CCc2ccccc2)C[C@H]1C	-0.6	i
C[C@@H]1CCCCO[C@@H](CN(C)Cc2ccccc2)[C@H](C)CN([C@H](C)CO)C(=O)c2cc(NS(=O)(=O)c3cn(C)cn3)ccc2O1	-2.4	i
COCC(=O)N1[C@@H](CO)[C@@H](c2ccccc2)[C@@H]1CNC(=O)c1ccccn1	-1.2	i
CNC(=O)C[C@@H]1CC[C@H]2[C@@H](COc3ccc(NC(=O)Nc4ccccc4F)cc3C(=O)N2C)O1	-0.1	i
O=C(Cc1ccccn1)N1CC2(C1)[C@H](c1ccccc1)[C@H](CO)N2C(=O)c1ccncc1	-2.5	i
C/C=C/c1ccc2c(c1)O[C@H](CN(C)Cc1ccccc1F)[C@@H](C)CN([C@H](C)CO)S2(=O)=O	6.3	i
C[C@H](CO)N1C[C@H](C)[C@@H](CN(C)Cc2ccc(C(F)(F)F)cc2)Oc2c(NS(=O)(=O)c3cccs3)cccc2C1=O	-8.2	i
CCCC#Cc1cnc2c(c1)C(=O)N([C@@H](C)CO)C[C@H](C)[C@@H](CN(C)Cc1ccncc1)O2	-12	i
C[C@H]1CN([C@@H](C)CO)S(=O)(=O)c2ccc(C#CC(C)(C)O)cc2O[C@@H]1CN(C)Cc1ccncc1	1.0	i
CCC(=O)N1[C@H](CO)[C@@H](c2ccc(-c3ccccc3OC)cc2)C12CN(C(C)=O)C2	-0.9	i
CCC(=O)N(C)C[C@@H]1Oc2ncc(C#Cc3ccc(OC)cc3)cc2C(=O)N([C@@H](C)CO)C[C@H]1C	0.0	i
Cc1cccc(-c2ccc([C@@H]3[C@H]4CN(C(=O)c5ccc6c(c5)OCO6)CCCCN4[C@H]3CO)cc2)c1	3.7	i
C[C@@H](NC(=O)C[C@@H]1C=C[C@@H](NC(=O)C2CCOCC2)[C@H](CO)O1)c1ccccc1	-0.2	i
COc1ccc(C#Cc2ccc([C@H]3[C@@H](CO)N4CCCCN(C)C[C@H]34)cc2)cc1	-14	i
O=C(C[C@@H]1C[C@H]2c3cc(NC(=O)Nc4ccccc4)ccc3O[C@H]2[C@H](CO)O1)NC1CCCCC1	2.8	i
Cc1ccc(S(=O)(=O)N(C)C[C@@H]2Oc3ccc(NC(=O)NC4CCCCC4)cc3CC(=O)N([C@@H](C)CO)C[C@@H]2C)cc1	1.9	i
Cc1cccc(S(=O)(=O)N[C@@H]2CC[C@H](CCNC(=O)Nc3cc(F)ccc3F)O[C@@H]2CO)c1	5.8	i
C[C@H](CO)N1C[C@H](C)[C@@H](CN(C)Cc2ccc(Cl)c(Cl)c2)Oc2ccc(NC(=O)NC3CCCCC3)cc2CC1=O	-2.3	i
O=C(NC[C@@H]1[C@H](c2ccccc2)[C@H](CO)N1CC1CC1)c1cccnc1	-3.3	i
O=C(NCC1CCCCC1)[C@@H]1[C@@H](CO)[C@@H]2Cn3c(cccc3=O)[C@@H]2N1C(=O)CC1CC1	-1.3	i
COc1ccc(NC(=O)N2C[C@H]3[C@@H](c4ccccc42)[C@H](CO)N3C(=O)C2CCCC2)cc1	-0.3	i
C[C@@H]1CN([C@@H](C)CO)C(=O)c2cc(NC(=O)Nc3ccc(C(F)(F)F)cc3)ccc2O[C@H]1CN(C)Cc1ccc(C(=O)Nc2ccccc2N)cc1	-4.8	i
C[C@H]1CN([C@@H](C)CO)C(=O)Cc2cc(N(C)C)ccc2O[C@@H]1CN(C)C(=O)Nc1cccc2ccccc12	4.4	i
C[C@@H]1CCCCO[C@@H](CN(C)C(=O)NC2CCCCC2)[C@@H](C)CN([C@H](C)CO)C(=O)c2cc(NC(=O)Nc3ccccc3)ccc2O1	-0.8	i
COc1ccc2c3c([nH]c2c1)[C@@H](CO)N(Cc1ccccn1)CC31CCN(C(=O)CC2CC2)CC1	-6.3	i
CC(=O)NC[C@@H]1[C@H](c2ccc(-c3cccc(F)c3)cc2)[C@H](CO)N1C(C)=O	-0.2	i
C[C@@H]1CN([C@H](C)CO)C(=O)Cc2cc(NC(=O)Nc3cccc4ccccc34)ccc2O[C@H]1CN(C)Cc1ccncc1	-3.7	i
N#C[C@H]1N[C@H](CO)[C@@H]1c1ccc(C#Cc2ccccc2F)cc1	-3.8	i
COc1ccc(NC(=O)N(C)C[C@H]2OCCCC[C@@H](C)Oc3ccc(NC(=O)Nc4ccc5c(c4)OCO5)cc3C(=O)N([C@H](C)CO)C[C@H]2C)cc1	7.8	i
CC(C)NC(=O)Nc1ccc2c(c1)C(=O)N([C@@H](C)CO)C[C@H](C)[C@@H](CN(C)Cc1ccccc1)O2	-1.7	i
COC(=O)c1ccc([C@H]2C=C(C(=O)O)O[C@@H](OCCCCO)C2)cc1	-21	i
COc1ccc(NC(=O)Nc2ccc3c(c2)[C@@H]2C[C@@H](CC(=O)N4CCc5ccccc5C4)O[C@H](CO)[C@@H]2O3)cc1	1.5	i
CC=Cc1ccc2n(c1=O)C[C@@H]1[C@@H](CO)[C@H](C(=O)Nc3ccc(-c4ccccc4)cc3)N(CCC)[C@H]21 (mixture of isomers)	4.3	i
CCc1cnc(N2[C@@H](C#N)[C@H](c3ccc(C#CCC4CCCC4)cc3)[C@@H]2CO)s1	0.6	i

Grouped by structure: those above containing an aryl methoxy group (ten)
SMILES	AF4-AF9 inh	FGF22 binding
COc1ccc(S(=O)(=O)N2CC[C@@H]3[C@@H](CO)N(C)c4ccc(-c5ccc(F)cc5)cc4[C@@H]32)cc1	0.9	i
COc1ccc(S(=O)(=O)N[C@@H]2CC[C@H](CC(=O)NCCc3ccccc3)O[C@H]2CO)cc1	-1.5	i
COc1ccc(NC(=O)Nc2ccc3c(c2)C(=O)N([C@H](C)CO)C[C@@H](C)[C@@H](CN(C)C(=O)Nc2ccc(OC)cc2)O3)cc1	2.0	i
CCC(=O)N1[C@H](CO)[C@@H](c2ccc(-c3ccccc3OC)cc2)C12CN(C(C)=O)C2	-0.9	i
CCC(=O)N(C)C[C@@H]1Oc2ncc(C#Cc3ccc(OC)cc3)cc2C(=O)N([C@@H](C)CO)C[C@H]1C	0.0	i
COc1ccc(C#Cc2ccc([C@H]3[C@@H](CO)N4CCCCN(C)C[C@H]34)cc2)cc1	-14	i
COc1ccc(NC(=O)N2C[C@H]3[C@@H](c4ccccc42)[C@H](CO)N3C(=O)C2CCCC2)cc1	-0.3	i
COc1ccc2c3c([nH]c2c1)[C@@H](CO)N(Cc1ccccn1)CC31CCN(C(=O)CC2CC2)CC1	-6.3	i
COc1ccc(NC(=O)N(C)C[C@H]2OCCCC[C@@H](C)Oc3ccc(NC(=O)Nc4ccc5c(c4)OCO5)cc3C(=O)N([C@H](C)CO)C[C@H]2C)cc1	7.8	i
COc1ccc(NC(=O)Nc2ccc3c(c2)[C@@H]2C[C@@H](CC(=O)N4CCc5ccccc5C4)O[C@H](CO)[C@@H]2O3)cc1	1.5	i
